RE007 growth inh: less growth of the S. pombe RE007 Vpr strain; Potency, µM (titrated, usually from 92.2 µM), inactives show at the top dose activity change, negative = less growth; S. pombe RE007 Vpr strain, BacTiter-Glo ATP luminescence, 24 h; control for the full effect not named in the record; 360,000 compounds, 0.21% hits; active = well fitted falling curve with a large enough effect; inconclusive = small, poorly fitted or top-dose-only effect; inactive = no such curve, though single readings can be large or run the other way;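 further: on the % scale 0 is the no-effect control and ±100 the full control effect; nearly all actives have a fitted effect of over 50% in size; the assay follows cell death caused by Vpr and the record does not say whether a fall means rescue or toxicity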
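Fission yeast RE007 carrying one integrated HIV-1 vpr copy, seeded at OD 0.01 in PMG+AL medium with 23 nL pinned compound. Grown 24 h at 30 degrees; viability read by BacTiter-Glo luminescence after 5 min.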
Cruzain inh Det: cruzain (T. cruzi) inhibition with detergent; purified cruzain, Z-FR-AMC fluorescence, 0.01% Triton; Potency, µM, for inactives: max response, negative = inhibition, usual class: inhibitors; AID 1478; P25779; 200,000 compounds, 0.43% hits; active means well fitted curve in the direction sought with a large enough effect; inconclusive means small, poorly fitted or top-dose-only effect, or another doubt; inactive means no such curve, though single readings can be large; an effect the other way counts as inactive or inconclusive;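 further: plate controls were neutral wells for no effect and buffer without enzyme for full effect; nearly all actives have a fitted effect of over 40% in size; top concentration of the series not given in the record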
Target sequence (P25779 123-467 limits assumed): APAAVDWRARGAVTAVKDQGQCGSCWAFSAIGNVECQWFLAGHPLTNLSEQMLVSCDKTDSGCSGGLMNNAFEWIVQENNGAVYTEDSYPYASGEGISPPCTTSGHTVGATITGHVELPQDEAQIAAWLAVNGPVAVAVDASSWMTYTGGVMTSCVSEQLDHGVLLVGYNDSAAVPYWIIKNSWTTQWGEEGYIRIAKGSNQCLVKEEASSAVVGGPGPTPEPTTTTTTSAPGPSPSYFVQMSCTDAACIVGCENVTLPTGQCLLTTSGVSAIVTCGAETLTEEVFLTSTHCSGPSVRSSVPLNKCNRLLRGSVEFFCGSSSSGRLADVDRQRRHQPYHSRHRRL
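Detergent-containing run (0.01% Triton X-100) in acetate buffer pH 5.5 with 5 mM DTT: enzyme at 1.5 nM final, 15 min compound preincubation at room temperature, then 2 uM Z-FR-AMC substrate. Activity taken as 60 s fluorescence increase at 360/450 nm.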
2A StopGo: lowers the luciferase signal of an FMDV 2A StopGo reporter; human cells with a luciferase reporter of 2A StopGo recoding; control for the full effect not named in the record; Potency, µM (doses to about 57.9 µM), for inactives: at the highest dose signal change, negative = less light; 410,000 compounds, 1.2% hits; active = well fitted falling curve with a large enough effect; inconclusive = small, poorly fitted or top-dose-only effect; inactive = no such curve, though single readings can be large or run the other way; tested in HEK293T cells; further: on the % scale 0 is the no-effect control and ±100 the full control effect; nearly all actives have a fitted effect of over 45% in size; luciferase light after 4 h
SARS PLP yeast: SARS-CoV PLP inhibition in yeast; AID 485353; 330,000 compounds, 0.19% hits; S. cerevisiae expressing SARS-CoV PLpro, growth rescue; control for the full effect not named in the record; Potency, µM (titrated, usually from 32.9 µM), for the others: top-dose activity, positive = growth rescue; further: 0% is about no effect; nearly all actives have a fitted effect of over 55% in size; growth read by luminescence after 48 h
Lassa entry inh: Lassa virus entry inhibition; AID 540256; 300,000 compounds, 1.2% hits; Potency, µM (series often up to 37.9 µM), without a hit: at the highest dose activity change, negative = inhibition, actives largely listed as inhibitors; Lassa virus pseudotype entry inhibition, cell reporter; control for the full effect not named in the record; active means well fitted inhibition curve with a large enough effect; inconclusive means small, poorly fitted or top-dose-only effect, or effect the other way; inactive means flat fitted curve, though single readings scatter; tested in HEK293 cells; further: on the % scale 0 is the no-effect control and ±100 the full control effect; nearly all actives have a fitted effect of over 50% in size; luciferase read-out
NS1 inh: inhibitors of influenza NS1 protein function. S. cerevisiae slowed by influenza A NS1, growth recovery by OD600. Potency, µM (titrated, usually from 46.1 µM), without a hit: at the top dose activity, positive = more growth. 270,000 compounds, 0.4% hits. AID 2326; further: actives are rising curves; nearly all actives have a fitted effect of over 50% in size
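Growth recovery, yeast-based: influenza A NS1 expressed in S. cerevisiae causes slow growth, and suppressors are detected by OD600. The parent strain without NS1 is used as positive control.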
Cruzain inh noDet: inhibitors of Trypanosoma cruzi cruzain without detergent; P25779; Potency, µM, without a hit: max response, negative = inhibition, actives largely listed as inhibitors; 200,000 compounds, 2.3% hits; purified cruzain, Z-FR-AMC fluorescence, no detergent; active means well fitted curve in the direction sought with a large enough effect; inconclusive means small, poorly fitted or top-dose-only effect, or another doubt; inactive means no such curve, though single readings can be large; an effect the other way counts as inactive or inconclusive;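 further: plate controls were enzyme without inhibitor for no effect and buffer without enzyme for full effect; nearly all actives have a fitted effect of over 40% in size; top concentration of the series not given in the record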
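Detergent-free condition (0.00005% Triton X-100) in acetate buffer pH 5.5 with DTT. 1.5 nM enzyme and compound were pre-mixed 15 min, then 2 uM Z-FR-AMC substrate added; reaction progress from fluorescence change between first and third reads (60 s).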
Marburg entry inh: inhibitors of Marburg virus binding or cell entry; Marburg virus pseudotyped entry inhibition, cell reporter; control for the full effect not named in the record; about a third of the inactives were read at about 46 µM; AID 540276; 300,000 compounds, 1.8% hits; Potency, µM (series often up to 37.8 µM), for inactives: top-dose activity change, negative = inhibition, hits mostly inhibitors; active = well fitted inhibition curve with a large enough effect; inconclusive = small, poorly fitted or top-dose-only effect, or effect the other way; inactive = flat fitted curve, though single readings scatter; tested in HEK293 cells; about a fifth of its hits are not listed in these tables; further: on the % scale 0 is the no-effect control and ±100 the full control effect; luciferase read-out
An asterisk follows results filed as active; ? = inconclusive; nt = not tested or not shown; & = joins results of further samples; [ ] = another dose, or the depositor's remark. Unless noted, the call rests on the fitted dose curve; in most records, active means well fitted rising curve with a large enough effect; inconclusive means small, poorly fitted or top-dose-only effect; inactive means no such curve, though single readings can be large or run the other way. Potency means the concentration at half of the fitted maximal effect.

SMILES | RE007 growth inh | Cruzain inh Det | 2A StopGo | SARS PLP yeast | Lassa entry inh | NS1 inh | Cruzain inh noDet | Marburg entry inh
N#Cc1ccc(/C=C2\CCCCn3c2nc2cc(C(=O)O)ccc2c3=O)cc1 | -1% | nt | 4% | 1% | 1%[46.1 µM] | 2% | nt | -6%[46.1 µM]
CC1C(=O)CCCCCCCCCC2C1(N1CCOCC1)CS2(=O)=O (stereo unspecified) | -1% | -4.2% | -19% | 11% | -1% | 22% | ? | 13%
CC(=O)Oc1ccc2c(=O)oc(-c3ccccc3C)nc2c1 | -3% | nt | -2% | -3% | nt | -54% | nt | nt
COc1cc(OC)c(C2C(C#N)=C(C)NC(C)=C2C#N)c(C(=O)O)c1 | 6% | nt | 22% | 1% | 1%[46.1 µM] | 6% | nt | ?
CC(C)(C)c1nc(SCC(=O)NNC(=O)c2ccccc2)c2ccccc2n1 | -4% | nt | 0% | -6% | nt | -22% | nt | ?
CC1=CC(=O)C(C(C)C)=C/C1=N/OC(=O)c1cccc([N+](=O)[O-])c1 | -4% | 1.5% | nt | -18% | -19% | -69% | 6% | -1%
CC1(C)CC(=O)c2cc(-c3nc(-c4ccc(Cl)cc4)cs3)c(=O)n(-c3ccc(Cl)cc3)c2C1 | nt | -1.9% | -3% | nt | -1%[46.1 µM] | nt | -2% | ?
O=C1CC(c2ccsc2)c2cc3c(cc2N1)OCCO3 (stereo unspecified) | 0% | 0.8% | -25% | -2% | nt | -5% | 3% | nt
COc1ccccc1C1C2=C(N=C3SCC(=O)N31)c1ccccc1CC2 (stereo unspecified) | 7% | -5.6% | 0% | -5% | 0% | -11% | ? | 0%
COc1ccccc1NC(=O)CCSc1nc(C)cc(C)n1 | 17% | nt | -16% | -1% | -24% | 2% | nt | -5%[46.1 µM]
COc1ccc(/C=C(\NC(=O)c2ccc(C)cc2)C(=O)NCCCn2ccnc2)cc1OC | 0% | nt | 31%[activator] | 0% | ? | -1% | nt | 4%[46.1 µM]
COc1ccc(CNC(=O)C2CCCN(C(=O)Nc3ccc(OC)cc3)C2)cc1 (stereo unspecified) | 3% | nt | 12% | 1% | 3% | -10% | nt | 4%[46.1 µM]
Cc1cc(=O)oc2c(C)c(OCC(=O)c3ccccc3)ccc12 | -3% | nt | 1% | -3% | nt | 22% | nt | nt
COc1ccc(CCNC(=O)CC2SC(=NCc3ccccc3OC)NC2=O)cc1 (stereo unspecified) | 10% | nt | -16% | 0% | -19%[46.1 µM] | nt | nt | 2%[46.1 µM]
COc1ccc(N2CCN(C(=O)c3ccc(SC)cc3OC)CC2)cc1 | 28% | nt | 12% | 0% | 1% | 2% | nt | ?
COc1ccc(NC(=O)CN(c2cc(C)cc(C)c2)S(=O)(=O)c2c(C)noc2C)cc1 | -15% | -4.5% | ? | -3% | nt | -17% | -3% | 2%
CC(C)CNC(=O)c1ccccc1NC(=O)c1ccccc1N(C)S(C)(=O)=O | -1% | -1.1% | -3% | 16% | -16% | 6% | 19% | 22%
CC(=O)N1CCCc2cc(S(=O)(=O)N3CCC(C(=O)NC4CCCCC4)CC3)ccc21 | nt | -0.1% | -4% | nt | 5%[46.1 µM] | nt | 9% | nt
CCC(=O)Nc1cccc(-c2nnc(-c3ccccc3)o2)c1 | -1% | nt | ? | nt | ? | nt | nt | -2%[46.1 µM]
COc1ccc(/C=C/c2c(-c3ccc(OC)cc3)oc3ccc(-c4ccc(OC)cc4)cc23)cc1 | -1% | nt | -2% | -9% | nt | 8% | nt | nt
CCOC(=O)c1c(C2CC2)csc1NC(C)=O | -22% | -8.5% | -20% | -5% | -3% | -22% | 6% | -25%
CC(C)(C)OC(=O)N[C@H](Cc1ccccc1)C(=O)N1CCC[C@@H]1C(=O)O | 4% | nt | -2% | 1% | nt | 4% | nt | nt
CSc1c(-c2ccccn2)c(N)nn1C(=O)C1CCC1 | 6% | nt | 17% | 0% | ? | -36% | nt | 26%
CN(C)CCNS(=O)(=O)c1ccc2c3c(cccc13)C(=O)N2 | 17% | nt | 25% | 6% | nt | -18% | nt | nt
COc1ccc(C2CC(c3ccccc3)=NN2C(=O)CSc2nnnn2-c2cccc(C)c2)cc1 (stereo unspecified) | 8% | nt | -7% | nt | 8% | nt | nt | -3%[46.1 µM]
(more compounds)
SMILES | RE007 growth inh | Cruzain inh Det | 2A StopGo | SARS PLP yeast | Lassa entry inh | NS1 inh | Cruzain inh noDet | Marburg entry inh
COc1ccc(OC)c(CNC(=O)C(C)n2c(C)c3cnn(-c4ccccc4)c(=O)c3c2C)c1 (stereo unspecified) | nt | 0.4% | -23% | nt | 23%[46.1 µM] | nt | ? | 24%[46.1 µM]
COc1cccc(C(C(=O)NC2CCCCC2)N(CCN2CCOCC2)C(=O)C2COc3ccccc3O2)c1 (stereo unspecified) | 5% | nt | 4% | 0% | 23% | 3% | nt | 13%[46.1 µM]
O=C(CCc1ccccc1)Nc1ccc(S(=O)(=O)NC2=NCCCCC2)cc1 | 8% | nt | 1% | -3% | 1% | nt | nt | 5%[46.1 µM]
CSc1nc(C)c(Cc2ccccc2)c(=O)[nH]1 | -6% | nt | -5% | 0% | 7%[46.1 µM] | -1% | nt | -15%[46.1 µM]
Cc1ccc(CO)cc1Nc1ncnc2onc(-c3ccc(F)cc3)c12 | nt | -2.1% | -9% | nt | ? | nt | 2% | -4%[46.1 µM]
CC(C)Cc1nc2oc3c(N4CCN(CCO)CC4)ncnc3c2c2c1CCCC2 | 13% | -9.2% | ? | 4% | ? | -51% | ? | ?
COc1cccc2cc(-c3nc(Nc4cccc(C)c4)sc3C)c(=O)oc12 | nt | -3.5% | 16% | nt | 13%[46.1 µM] | nt | -3% | nt
COC(=O)c1ccccc1NC(=O)CSc1nnnn1CC(=O)O | 11% | nt | -7% | 0% | -1% | 5% | nt | 1%[46.1 µM]
CC(C)Cn1c(NCCO)nc2ccccc21 | 1% | 3.9% | -12% | -21% | -1% | 9% | -11% | 17%
CN(C)c1ccc2c3c(ccc(N(C)C)c13)COC2 | -13% | nt | -1% | 0% | -10%[46.1 µM] | 19% | nt | 1%[46.1 µM]
CCOc1ccc(NC(=O)Nc2cnccn2)cc1 | -6% | nt | 36%[activator] | 0% | 23% | nt | nt | 6%[46.1 µM]
Cc1noc(C)c1C(=O)N1CCC(CO)(Cc2ccccc2)CC1 | -2% | nt | 17% | 0% | 21%[46.1 µM] | 4% | nt | ?
Cc1c(OCC(=O)N[C@@H](CSCc2ccccc2)C(=O)O)ccc2c3c(c(=O)oc12)CCC3 | -8% | nt | -15% | 6% | nt | 27% | nt | nt
O=C(NCCc1csc(-c2cccc(F)c2)n1)c1ccccc1C(F)(F)F | nt | -8.1% | -28% | nt | -12%[46.1 µM] | nt | 3% | nt
O=C(CSc1nc2ccccc2s1)NC1CCCc2ccccc21 (stereo unspecified) | 7% | -10% | 9% | 12% | -17% | -23% | -3% | -25%
CC(=O)c1ccc(NC(=O)c2cnn(-c3cccc(F)c3)c2-n2cccc2)cc1 | nt | -4.1% | 0% | nt | -4%[46.1 µM] | nt | 30% | nt
O=C(O)c1ccc(/C=C2\COc3ccccc3C2=O)cc1 | -16% | nt | 22µM* | 1% | ? | -21% | nt | ?
COC(=O)c1sccc1NC(=S)Nc1ccc(C)cc1 | 21% | nt | 41%[activator] | -1% | ? | 8% | nt | -18%
CCOC(=O)c1ccc(NC(=O)C2CCCN(c3ncnc4onc(-c5ccc(F)cc5)c34)C2)cc1 (stereo unspecified) | nt | -3.5% | -15% | nt | 7%[46.1 µM] | nt | 2% | nt
COc1ccc(/C=C2\SC(=O)N(CCC(=O)Nc3ccc(S(=O)(=O)Nc4nccs4)cc3)C2=O)cc1 | 7% | -5.6% | 67%[activator] | -21% | ? | -1% | -27% | 2%
Cc1c(Cl)cccc1NC(=O)CCS(=O)(=O)c1cccc2nsnc12 | nt | -3.0% | 2% | nt | -18%[46.1 µM] | nt | 8% | 8%[46.1 µM]
Cc1ccc(NC(=O)CC2S/C(=N/c3nccs3)N(C)C2=O)c(C)c1 (stereo unspecified) | 0% | 3.0% | 0% | 1% | 2% | 1% | -8% | -5%
COc1ccc(-n2cc(-c3ccc4c(c3)OCO4)n(CC(=O)Nc3cccc(C)c3)c2=O)cc1 | nt | -6.8% | -4% | nt | -27%[46.1 µM] | nt | -27% | -11%[46.1 µM]
O=C1NCC(COc2ccc([N+](=O)[O-])cc2)O1 (stereo unspecified) | -1% | nt | -5% | -2% | nt | 4% | nt | nt
COC(=O)c1ccccc1N(C)S(C)(=O)=O | 4% | 1.1% | -4% | 6% | 15% | -2% | -4% | 0%&0%
The listing continues.
SMILES | RE007 growth inh | Cruzain inh Det | 2A StopGo | SARS PLP yeast | Lassa entry inh | NS1 inh | Cruzain inh noDet | Marburg entry inh
CCOC(=O)C1CCN(c2c(NCCCN3CCCCC3)c(=O)c2=O)CC1 | 9% | nt | -4% | 2% | nt | -1% | nt | nt
CCOC(=O)c1c(S(=O)(=O)NCC(=O)Nc2cccc(SC)c2)c(C)n(C)c1C | nt | 1.8% | 12% | nt | -11%[46.1 µM] | nt | 13% | nt
CCc1c(C)nc(N)nc1N1N=C1SC(C(C)=O)C(C)=O | 13% | nt | 10% | 2% | -1%[46.1 µM] | 5% | nt | 22%[46.1 µM]
O=C(Nc1ccncc1)c1ccccc1-c1ccccc1 | -8% | nt | -8% | -1% | -1% | -2% | nt | -36%[46.1 µM]
O=P(OC1CCCCC1)(OC1CCCCC1)C(O)c1ccc(Cl)cc1Cl (stereo unspecified) | -1% | -0.3% | 52%[activator] | 6% | 9% | ? | 22% | ?
CS(=O)(=O)N(CC(=O)N1CCN(c2cccc(Cl)c2)CC1)c1cccc(F)c1 | 4% | -4.9% | ? | -3% | ? | -24% | 25% | ?
O=C(Nc1nc2c(s1)CN(Cc1ccccc1)CC2)c1cccc(S(=O)(=O)N2CCc3ccccc32)c1 | 2% | -1.1% | -19% | 9% | -9% | 29% | ? | -11%&-11%
Cc1ccc(CSc2ccc3nnc(-c4cccnc4)n3n2)cc1 | 5% | -6.2% | ? | 9% | 3% | 2% | -12% | 4%
O=C(O)c1ccc(S(=O)(=O)c2ccc3c(c2)C(=O)N(Cc2ccco2)C3=O)cc1 | 6% | -3.8% | 14% | 3% | 0% | 8% | 7% | 7%
Cc1ccc(C(C2=C(O)CC(C)(C)CC2=O)C2C(=O)CC(C)(C)CC2=O)o1 (stereo unspecified) | -3% | 1.2% | ? | -2% | 1% | 6% | 9% | 29%

Bioassay records from PubChem.
